VDR inh – Inhibitors of the vitamin D receptor (VDR): qHTS; Vitamin D3 receptor (Homo sapiens), P11473; VDR-SRC2-3 peptide fluorescence polarization, 2 h; Potency, µM, for inactives: max response, negative = inhibition, usual class: inhibitors; 0.93% of 400,000 active; active = well fitted inhibition curve with a large enough effect; inconclusive = small, poorly fitted or top-dose-only effect, or another doubt; inactive = no such curve, though single readings can be large or run the other way; note: series mostly up to about 120 µM
Target sequence (P11473 whole entry, looked up): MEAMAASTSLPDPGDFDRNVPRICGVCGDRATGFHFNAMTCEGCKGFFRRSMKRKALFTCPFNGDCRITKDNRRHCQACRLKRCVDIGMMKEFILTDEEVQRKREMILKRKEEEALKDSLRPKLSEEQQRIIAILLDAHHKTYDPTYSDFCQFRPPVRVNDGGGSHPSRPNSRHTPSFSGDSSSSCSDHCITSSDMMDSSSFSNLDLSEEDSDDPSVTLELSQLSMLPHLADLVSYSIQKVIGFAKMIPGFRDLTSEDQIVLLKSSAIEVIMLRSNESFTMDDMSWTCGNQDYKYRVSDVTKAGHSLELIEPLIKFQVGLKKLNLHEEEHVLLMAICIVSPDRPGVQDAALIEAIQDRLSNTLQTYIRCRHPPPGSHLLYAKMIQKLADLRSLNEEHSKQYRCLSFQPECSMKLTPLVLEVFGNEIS
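Compounds are added to VDR with labelled SRC2-3 coactivator peptide and held 2 h at room temperature. Inhibition of the VDR–peptide interaction is then read as a change in fluorescence polarization.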
* = called active by the depositor; u = inconclusive; [ ] = remark or other dose. % is set by controls: 0 for no effect and ±100 for the full control effect; potency is the fitted concentration of half-maximal effect. The list is partial (hit frequency here may not be typical).

SMILES	VDR inh
S=C(NCc1ccc2c(c1)OCO2)Nc1ccc(-c2nc3ccccc3[nH]2)cc1	u
Cc1ccc(CSC2=NCCN2C(=O)c2ccc([N+](=O)[O-])cc2)cc1	-7.5%
Cc1cc(OCC(=O)OCC(=O)N2c3ccccc3NC(=O)C2(C)C)ccc1Cl	-4.3%
Nc1ccc(C(=O)OCC(=O)Nc2cccc(S(=O)(=O)NC3=NCCCCC3)c2)cc1[N+](=O)[O-]	-1.7%
CCc1nnc(NC(=O)/C=C/c2cccs2)s1	15.5%
CCOC(=O)CC1C(=O)NCCN1C(=O)c1ccc(Cl)c(Cl)c1 (configuration not stated)	5.6%
COc1ccc(NC(=O)N(C)C[C@H]2Oc3c(NC(=O)C4CC4)cccc3C(=O)N([C@H](C)CO)C[C@@H]2C)cc1	0.8%
O=C(CSc1nc2c(c(=O)n1-c1ccc(Br)cc1)SCC2)Nc1nccs1	13.8%
O=C(c1cc(C(F)(F)F)cc(C(F)(F)F)c1)N1CCC2(CC1)CN(c1ncccn1)C2	-3.6%
O=[N+]([O-])c1ccc2nc(NCCCO)nc(-c3ccccc3)c2c1	u
COc1cc(C=O)ccc1Oc1ccc(S(=O)(=O)N2CCOCC2)cc1[N+](=O)[O-]	-1.8%
CCOC(=O)C1CCCN(C2CCN(Cc3nc(-c4ccccc4)no3)CC2)C1 (configuration not stated)	-15.6%
Fc1ccc(NC(=S)Nc2ccc3nccnc3c2)cc1	u
COc1ccc(N2CCN(CCCNC(=O)CC3Oc4ccc(C)cc4NC3=O)CC2)cc1 (configuration not stated)	-21.0%
COc1cccc(/C=C/C(=O)NNC(=O)CCN2CCN(Cc3ccccc3)CC2)c1	2.5%
CC(C)c1ccc(CNC(=O)C(=O)Nc2nccs2)cc1	-9.0%
NC(=O)c1nnn(-c2ccc([N+](=O)[O-])cc2)c1-c1ccccc1	-6.0%
Cc1ccccc1CN1CCN(CC2CC3C=CC2C3)CC1 (configuration not stated)	14.2%
O=C(Cn1[nH]c(=O)c2ccccc2c1=O)OCC(=O)c1ccc(Br)cc1	-15.0%
Cc1ccc(C(=O)COC(=O)C(Cc2c[nH]c3ccccc23)NC(=O)c2ccc(C(C)(C)C)cc2)cc1 (configuration not stated)	-5.2%
CCOc1nc(-c2ccccc2Cl)ccc1C#N	1.8%
CCCCNC(=O)c1cc(C)no1	-19.8%
CC1=C(c2ccc(C(C)C)cc2)S(=O)(=O)N=C1N1CCC(C(=O)NCc2ccccc2)CC1	2.9%
Cc1ccccc1S(=O)(=O)NNC(=O)C(=O)NNc1ccccn1	18.2%
Cc1onc(-c2ccccc2)c1C(=O)N1CCN(c2ncccn2)CC1	-18.3%
CCOC(=O)CNC(=O)CSc1nnc(-c2c[nH]c3ccccc23)n1CC	8.6%
O=C(COC(=O)CC12CC3CC(CC(C3)C1)C2)Nc1ncc(Cl)cc1Cl	3.5%
Cc1ccc(CSc2nc(=O)c3c(n2C)NC(=O)CC3c2ccc(OC(C)C)cc2)cc1 (configuration not stated)	1.6%
O=C(NC1CCCCC1)C(c1ccccc1)N(C(=O)c1csnn1)C1CC1 (configuration not stated)	14.4%
Cc1cc(C)n2nc(CCc3ccccc3)nc2n1	-3.4%
CN(Cc1cnccn1)C(=O)CC1C(=O)NCCN1Cc1cccc(F)c1 (configuration not stated)	9.6%
CC1(C)CC(=O)C2=C(C1)Oc1nc3ccccc3cc1C2C(C#N)C#N (configuration not stated)	-15.0%
Cc1ccccc1C(=O)N(Cc1ccc(N(C)C)cc1)CC1CCCO1 (configuration not stated)	6.4%
CC(C)(C)NC(=O)NC(=O)COC(=O)CNC(=O)c1cc(Cl)cc([N+](=O)[O-])c1	6.2%
O=C(N/N=C/c1cc2c(cc1[N+](=O)[O-])OCO2)c1cccnc1	-12.7%
NC(=S)Nc1ccc(Cl)cc1Cl	-12.1%
CN1C(C)(C)CC(=NO)CC1(C)C	-21.4%
O=C(Nc1nc2ccc(F)cc2s1)Oc1ccccc1	9.0%
O=C(NCCCNC(=O)c1ccc(-c2cc(Cl)ccc2Cl)o1)c1cnccn1	3.4%
COc1ccc2c(c1)cc(C(=O)N/N=C/c1c(O)c(C(=O)O)cc3ccccc13)n2C	-25.0%
O=C(Cc1ccc(-c2ccccc2)cc1)NNC(=S)NCc1ccco1	17.5%
c1ccc(CC2CCN(C3=Nc4cccc5cccc3c45)CC2)cc1	2.7%
O=C(CCN1CCCCO1)N1CCCC(Nc2ccc(F)c(F)c2)C1 (configuration not stated)	-2.6%
Cc1ccc(CNS(=O)(=O)NCc2cccs2)cc1	u
O=C(Nc1ccc2oc(-c3cccc(Cl)c3Cl)nc2c1)c1cccc(Br)c1	3.2%
Cc1c(C(=O)Nc2ccc(OC(F)(F)F)cc2)sc2nc3n(c(=O)c12)CCC3	-8.5%
CN(C)c1ccc(CNn2cnnc2SCc2ccccc2F)cc1	11.4%
Cc1ccc(NC(=O)COc2ccc(CCO)cc2-n2nc3ccccc3n2)cc1C	-1.2%
CCCCN(C(=O)c1cccc(S(=O)(=O)N2CCN(Cc3ccccc3)CC2)c1)c1ccccc1	-9.9%
Cc1ccc(C)n1-c1ccc(C(=O)N2CCOCC2)cc1	18.4%
COc1ccnc2c1c(=O)n(Cc1ccc(F)cc1)c(=O)n2C	-10.2%
O=C(Nc1cc(C(F)(F)F)ccc1Cl)c1cccnc1	-4.9%
Cc1ccc(C(C)NC(=O)C2CCCC2)c(C)c1 (configuration not stated)	-24.7%
Cc1ccc(C(=O)N/N=C\c2cc(Br)c(Br)o2)cn1	2.8%
CCOC(=O)c1ccc(Nc2ncnc3nc[nH]c23)cc1	7.7%
Cc1ccn2c(C(=O)NN=C3CCN(C)CC3)c(C)nc2c1	10.9%
Cc1ccc(NC(=O)Nn2cnnc2)c(C)c1	-10.1%
CCOC(=O)c1cc(C)n(-c2ccccc2)c1C	4.1%
CC1CCCCN1C(=O)COC(=O)c1ccc(=O)n(Cc2ccccc2)n1 (configuration not stated)	1.8%
CCOC(=O)N1CCC(NC(=O)CCN2C(=O)C3C4C=CC(C4)C3C2=O)CC1 (configuration not stated)	15.3%

New compounds follow.
SMILES	VDR inh
COc1cc(OC)c(NC(c2nnc(-c3ccccc3)o2)c2ccc(F)cc2Cl)cc1Cl (configuration not stated)	6.0%
Cn1c(N)c(C(=O)COC(=O)C2CCCCC2)c(=O)n(C)c1=O	-7.6%
Cc1ccc(C)n1NC(=O)c1ccccc1[N+](=O)[O-]	8.6%
COc1ccc(NC(=O)CCNS(=O)(=O)c2ccc(Br)s2)cc1	1.7%
CCNc1ncc2nc(C)c(=O)n(Cc3cccs3)c2n1	-0.7%
Cc1cccc(C)c1NC(=O)CN(C)C(=O)c1ccc(-n2cncn2)c([N+](=O)[O-])c1	-2.8%
COC(=O)c1c(NC(=O)CC2SCC(C(=O)OC)NC2=O)sc2c1CCCC2 (configuration not stated)	-4.9%
Cc1c(C2C(C#N)=C(N)N(c3ccccc3C#N)C3=C2C(=O)CCC3)cnn1C (configuration not stated)	-7.2%
N[C@H](Cn1ccc(=O)c(O)c1)C(=O)O	0.9%
CCOc1cccc(-c2nnc3sc(C4CCCCC4)nn23)c1	u
CCOc1cccc2cc(C(=O)Nc3nccs3)c(=O)oc12	18.1%
COc1cc(C(=O)c2ccccc2)c([N+](=O)[O-])cc1OC	-7.2%
Cc1ccc(NC(=O)Cn2nc(C)c3nn(-c4ccc(Cl)cc4)c(C)c3c2=O)cc1F	-5.0%
C#CCSc1nnc(-c2ccc(C)cc2)o1	-7.7%
COc1ccc(OC)c(-c2nc3c(C)n[nH]c(=O)c3[nH]2)c1	1.0%

An excerpt from above in order of molecular weight, rising.
SMILES	VDR inh
N[C@H](Cn1ccc(=O)c(O)c1)C(=O)O	0.9%
Cc1ccc(C)n1NC(=O)c1ccccc1[N+](=O)[O-]	8.6%
COc1cc(C(=O)c2ccccc2)c([N+](=O)[O-])cc1OC	-7.2%
CCNc1ncc2nc(C)c(=O)n(Cc3cccs3)c2n1	-0.7%
CCOc1cccc2cc(C(=O)Nc3nccs3)c(=O)oc12	18.1%
CCOc1cccc(-c2nnc3sc(C4CCCCC4)nn23)c1	u
Cc1cccc(C)c1NC(=O)CN(C)C(=O)c1ccc(-n2cncn2)c([N+](=O)[O-])c1	-2.8%

(continued)
SMILES	VDR inh
COc1cc(/C=c2\sc3nc(=O)c(-c4ccccc4)nn3c2=O)ccc1OCCC(C)C	-27.3%
COc1ccc(S(=O)(=O)N/N=C(/C)c2ccncc2)cc1	32.5%[activator]
CCCCCC(=O)Nc1cccc(C2=NOC3(C2)C[C@@H](C(N)=O)N(C(=O)c2ccc(OC)cc2)C3)c1 (some centres not stated)	10.5%
CC(=O)NC1C(=O)N(CCc2ccccc2)c2ccc(Br)cc21 (configuration not stated)	4.6%
COc1ccc(-c2cc(C(=O)OCc3ccccn3)c3ccccc3n2)cc1	15.5%
Cc1ccc2c(c1)c1c(n2CCc2ccc(C)nc2)CCN(C)C1	-13.9%
O=C1C=CC(=O)N1	39.8µM*
CN(C)S(=O)(=O)c1cccc(NC(=O)COC(=O)c2cccnc2Cl)c1	20.2%
O=S(=O)(c1ccc(Cl)cc1Cl)n1ccnc1	-5.4%
CCOC(=O)C1=CN(Cc2cccc(Br)c2)S(=O)(=O)N(C)C1C (configuration not stated)	7.7%
CC(C)c1ccc(S(=O)(=O)N2CCN(C(=O)CN3C(=O)NC4(CCCC4)C3=O)CC2)cc1	4.7%
Cc1ccc(-c2ccc(=O)n(CC(=O)NCC3COCCO3)n2)cc1 (configuration not stated)	2.9%
CCOc1ccc(/C=C(\C#N)C(=O)Nc2sc3c(c2C(=O)OC)CCC3)cc1OC	-8.8%
CCN(CCCNC(=O)c1cc2c(Cl)nc3ccccc3c2s1)Cc1ccccc1	-4.0%
CC1=NN(c2nc(-c3ccccc3)cs2)C(=O)C1N=Nc1ccccc1 (configuration not stated)	-7.3%
CCOc1ccc(N2C(=O)Nc3ccc(Br)cc3C2(O)C(=O)NC(C)C)cc1 (configuration not stated)	-13.0%
COc1ccccc1NC(=S)N=Nc1c(O)[nH]c2ccc(Br)cc12	-6.0%
Cc1nnc(-c2ccccc2)nc1N(C)C	-10.2%
CC(C)CCn1c(SCC(=O)OCn2nnc3ccccc3c2=O)nc2ccccc2c1=O	10.8%
COc1cccc(-c2nnc(NC(=O)Cc3cccs3)s2)c1	-4.2%
CC(C)OP(=O)(OC(C)C)C(Nc1ccc([N+](=O)[O-])cc1)c1cccc([N+](=O)[O-])c1 (configuration not stated)	-23.0%
CCCCCC(=O)N/N=C(\C)c1ccc(N2CCCCC2)cc1	3.6%
O=C(COc1ncnc2ccccc12)Nc1ccc(Cl)c(S(=O)(=O)N2CCOCC2)c1	3.8%
CCOc1ccccc1NC(=O)c1ccc2c(Cl)c3c(nc2c1)CCCC3	13.7%
COc1cc(C(=O)Nc2nc3ccc(S(=O)(=O)N4CCOCC4)cc3s2)cc(OC)c1OC	-2.8%
Cc1ccc(-n2nnc3c(=O)oc4ccccc4c32)cc1	-3.2%
O=C(c1ccco1)N1CCN(C(=O)c2cc(-c3ccccn3)nc3ccc(Cl)cc23)CC1	-23.4%
CC(C)(C)C1CCc2nc(NC(=O)c3cccc(Cl)c3)sc2C1 (configuration not stated)	5.7%
CN(C)c1nc(=Nc2cccc(Cl)c2)ss1	25.1µM*
CCOC(=O)N1CCN(C(=O)CNC(=O)Cn2cnc3ccccc3c2=O)CC1	5.4%

Already shown: entries from further up.
SMILES	VDR inh
CCOc1ccc(N2C(=O)Nc3ccc(Br)cc3C2(O)C(=O)NC(C)C)cc1 (configuration not stated)	-13.0%
COc1ccccc1NC(=S)N=Nc1c(O)[nH]c2ccc(Br)cc12	-6.0%
Cc1nnc(-c2ccccc2)nc1N(C)C	-10.2%
CC(C)CCn1c(SCC(=O)OCn2nnc3ccccc3c2=O)nc2ccccc2c1=O	10.8%

Going on with the list:
SMILES	VDR inh
O=C(c1ccncc1)N1CCC[C@@]2(CCN(c3ccccn3)C2)C1	u
Cc1cc(C(=O)NCC(=O)OCC(=O)NCCc2ccccc2)ccc1[N+](=O)[O-]	-8.1%
CCc1ccccc1NS(=O)(=O)c1cc(C)ccc1OC	-1.9%
COCCSc1nnc(NC(=O)CSCc2ccccc2)s1	-19.2%
O=C(O)CN=C1NC2(CCCCC2)Cc2ccccc21	-5.1%
CC(C)(O)C(=O)NNC(=S)Nc1cccc(C(F)(F)F)c1	8.4%
Cc1cc(NC(=O)CSc2nnc(-c3ccccc3)n2Cc2ccco2)no1	0.4%
CCn1ncc(CNC(=O)C2(C)CC2(Br)Br)c1C (configuration not stated)	-13.9%
Nc1cc(N)nc(SCC(=O)Nc2ccc(Br)cc2Cl)n1	-20.9%
O=[N+]([O-])c1ccc(-[n+]2nc(-c3ccccc3)nn2-c2ccccc2)cc1	-11.7%
NC(=S)NC(=O)c1ccccc1	-9.9%
COc1c(Cl)cc(-c2noc(C)c2C(=O)NCc2ccc3c(c2)OCO3)cc1Cl	-16.0%
CC(C)N(C(=O)[C@H]1CC(CC(=O)NCCCn2ccnc2)C(=O)N2CCc3c([nH]c4ccccc34)[C@]12C)C(C)C (some centres not stated)	-2.7%
CSc1cc(-c2ccc(Cl)cc2)c(C(=O)NN)s1	u
Cc1cccc(-c2nc(CSCC(=O)NCCc3ccc(Cl)cc3)c(C)o2)c1	-9.6%
Cn1cc(/C=N/n2cnc3scc(-c4ccc(Cl)cc4)c3c2=O)c2ccccc21	-0.9%
Cc1nc(N2CCOCC2)c2c(C)c(C(=O)Nc3ccc(C(F)(F)F)cc3)sc2n1	-12.3%
COc1ccc(OC)c(NC(=O)c2ccc(Cl)cc2)c1	-10.8%
CCCc1cc(=O)[nH]c(SCC(=O)Nc2ccc(OC)c(S(=O)(=O)N3CCCCC3)c2)n1	5.8%
Cc1ccc(C)c(C(=O)COC(=O)Cn2[nH]c(=O)c3ccccc3c2=O)c1	2.0%
COc1ccc(OC)c(NC(=O)Cn2c(=O)n(Cc3ccccc3)c(=O)c3ccccc32)c1	-7.8%

High-throughput results: PubChem, National Center for Advancing Translational Sciences (NCATS)
